# Lassa entry inh: qHTS for Inhibitors of binding or entry into cells for Lassa Virus | Lassa virus pseudotype entry inhibition, cell reporter; control for the full effect not named in the record | Potency, µM (top dose mostly 37.9 µM), inactives show at the highest dose activity change, negative = inhibition, actives largely listed as inhibitors | actives 1.2% (n = 300,000) | AID 540256, 2011; active means well fitted inhibition curve with a large enough effect; inconclusive means small, poorly fitted or top-dose-only effect, or effect the other way; inactive means flat fitted curve, though single readings scatter; tested in HEK293 cells; note: % is set by controls: 0 for no effect and ±100 for the full control effect; nearly all actives have a fitted effect of over 50% in size; luciferase read-out
# NS1 function inh: qHTS Assay for Inhibitors of Influenza NS1 Protein Function | Potency, µM (series often up to 46.1 µM), for inactives: at the top dose activity, positive = more growth | actives 0.4% (n = 270,000) | S. cerevisiae slowed by influenza A NS1, growth recovery by OD600; active means well fitted rising curve with a large enough effect; inconclusive means small, poorly fitted or top-dose-only effect; inactive means no such curve, though single readings can be large or run the other way; note: nearly all actives have a fitted effect of over 50% in size
#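 Read-out: OD600 growth recovery of NS1-expressing budding yeast. Cells grown overnight at 30C in -URA glucose medium, washed, resuspended and diluted 1:100 in 2% galactose assay medium, pH 6.0. Same strain lacking NS1 served as positive control.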
# SARS PLP yeast: qHTS of Yeast-based Assay for SARS-CoV PLP | S. cerevisiae expressing SARS-CoV PLpro, growth rescue; control for the full effect not named in the record | Potency, µM (doses to about 32.9 µM), without a hit: at the highest dose activity, positive = growth rescue | actives 0.19% (n = 330,000) | AID 485353, 2010; active means well fitted rising curve with a large enough effect; inconclusive means small, poorly fitted or top-dose-only effect; inactive means no such curve, though single readings can be large or run the other way; note: 0% is about no effect; nearly all actives have a fitted effect of over 55% in size; growth read by luminescence after 48 h
# RE007 growth inh: qHTS Assay for Inhibitors of the HIV-1 protein Vpr; S. pombe RE007 Vpr strain, BacTiter-Glo ATP luminescence, 24 h; control for the full effect not named in the record; AID 651644, 2012; Potency, µM (series often up to 92.2 µM), inactives show at the top dose activity change, negative = less growth; actives 0.21% (n = 360,000); active = well fitted falling curve with a large enough effect; inconclusive = small, poorly fitted or top-dose-only effect; inactive = no such curve, though single readings can be large or run the other way;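 note: % is set by controls: 0 for no effect and ±100 for the full control effect; nearly all actives have a fitted effect of over 50% in size; the assay follows cell death caused by Vpr and the record does not say whether a fall means rescue or toxicity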
#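 Fission yeast RE007 carrying one integrated HIV-1 vpr copy, seeded at OD 0.01 in PMG+AL medium with 23 nL pinned compound. Grown 24 h at 30 degrees; viability read by BacTiter-Glo luminescence after 5 min.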
# 2A StopGo: High Throughput Screening for Foot and Mouth Disease Virus Antivirals; human cells with a luciferase reporter of 2A StopGo recoding; control for the full effect not named in the record; actives 1.2% (n = 410,000); Potency, µM (titrated, usually from 57.9 µM), inactives show at the highest dose signal change, negative = less light; AID 1159524, 2015; active = well fitted falling curve with a large enough effect; inconclusive = small, poorly fitted or top-dose-only effect; inactive = no such curve, though single readings can be large or run the other way; tested in HEK293T cells; note: % is set by controls: 0 for no effect and ±100 for the full control effect; nearly all actives have a fitted effect of over 45% in size; luciferase light after 4 h
# Cruzain inh noDet: qHTS Assay for Promiscuous and Specific Inhibitors of Cruzain (without detergent). purified cruzain, Z-FR-AMC fluorescence, no detergent. Potency, µM, without a hit: max response, negative = inhibition, usual class: inhibitors. actives 2.3% (n = 200,000). AID 1476, 2009;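 note: plate controls were enzyme without inhibitor for no effect and buffer without enzyme for full effect; nearly all actives have a fitted effect of over 40% in size; top concentration of the series not given in the record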
# Target sequence (P25779 123-467 limits assumed): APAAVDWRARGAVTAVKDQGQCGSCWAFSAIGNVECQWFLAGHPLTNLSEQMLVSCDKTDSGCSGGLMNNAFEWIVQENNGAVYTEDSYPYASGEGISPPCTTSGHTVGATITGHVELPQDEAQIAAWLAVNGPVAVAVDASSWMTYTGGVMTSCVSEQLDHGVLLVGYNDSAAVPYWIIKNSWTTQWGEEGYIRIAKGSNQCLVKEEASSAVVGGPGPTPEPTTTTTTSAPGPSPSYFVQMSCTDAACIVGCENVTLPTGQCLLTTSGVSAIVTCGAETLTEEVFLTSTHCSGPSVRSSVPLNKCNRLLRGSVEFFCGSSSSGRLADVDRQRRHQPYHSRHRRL
#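 Detergent-free condition (0.00005% Triton X-100) in acetate buffer pH 5.5 with DTT. 1.5 nM enzyme and compound were pre-mixed 15 min, then 2 uM Z-FR-AMC substrate added; reaction progress from fluorescence change between first and third reads (60 s).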
# MARV entry inh: qHTS for inhibitors of binding or entry into cells for Marburg Virus; Marburg virus pseudotyped entry inhibition, cell reporter; control for the full effect not named in the record; about a third of the inactives were read at about 46 µM; Potency, µM (series often up to 37.8 µM), inactives show top-dose activity change, negative = inhibition, usual class: inhibitors; actives 1.8% (n = 300,000); AID 540276, 2011; active = well fitted inhibition curve with a large enough effect; inconclusive = small, poorly fitted or top-dose-only effect, or effect the other way; inactive = flat fitted curve, though single readings scatter; tested in HEK293 cells; about a fifth of its hits are not listed in these tables; note: % is set by controls: 0 for no effect and ±100 for the full control effect; luciferase read-out
# Cruzain Triton: qHTS Assay for Promiscuous and Specific Inhibitors of Cruzain (with detergent). purified cruzain, Z-FR-AMC fluorescence, 0.01% Triton. Potency, µM, without a hit: max response, negative = inhibition, hits mostly inhibitors. actives 0.43% (n = 200,000). AID 1478, 2009;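 note: plate controls were neutral wells for no effect and buffer without enzyme for full effect; nearly all actives have a fitted effect of over 40% in size; top concentration of the series not given in the record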
#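 Enzyme 1.5 nM, Z-FR-AMC 2 uM, NaOAc 100 mM pH 5.5, DTT 5 mM, Triton X-100 0.01%; 15 min RT compound preincubation; kinetic ex360/em450, 60 s delta.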
# Numbers without * were called inactive; ? = inconclusive; nt = not tested or not shown; & = joins results of further samples; [ ] = dose if it differs, or a comment. Unless noted, calls come from the whole dose curve; as a rule, active = well fitted curve in the direction sought with a large enough effect; inconclusive = small, poorly fitted or top-dose-only effect, or another doubt; inactive = no such curve, though single readings can be large; an effect the other way counts as inactive or inconclusive. Potency is the fitted concentration of half-maximal effect.
SMILES,Lassa entry inh,NS1 function inh,SARS PLP yeast,RE007 growth inh,2A StopGo,Cruzain inh noDet,MARV entry inh,Cruzain Triton
CCOC(=O)c1cccc(NC(=O)CCNS(=O)(=O)c2cccc3nonc23)c1,-14%,4%,7%,0%,17%&0%,11%,-4%&4%[46.1 µM],-2.8%
COc1ccc(Br)cc1CNC(=O)c1ccc2c(c1)nc1n2CCCCC1,?,nt,nt,nt,5%,-5%,nt,-4.0%
CCOC(=O)CN1CC(C)(C)N(CC(=O)OCC)CC1(C)C,3%,nt,nt,-10%,-20%,nt,20%,nt
CCOc1ccccc1C(=O)N1CCCCC1C (stereo not drawn),1%,12%,-6%,10%,21%,7%,-4%,2.3%
CCOC(=O)C(C(=O)OCC)C(C(=O)OCC)N1CCOCC1 (stereo not drawn),11%,?,-11%,-27%,32µM*,4%,?,1.7%
CCN(c1ccc(OC)cc1)S(=O)(=O)c1ccc2c(c1)CCN2C(=O)CCC(=O)O,15%[14.3 µM],9%,5%,11%,7%,?,?,-4.5%
O=C(O)c1ccc([N+](=O)[O-])cc1-c1cc([N+](=O)[O-])ccc1C(=O)O,24%[46.1 µM],nt,nt,0%,-9%,nt,6%[46.1 µM],nt
CC(=O)Nc1ccc(S(=O)(=O)N/N=C/c2ccc(C)o2)cc1,nt,1%,1%,5%,32%[activator],nt,nt,nt
CCCc1nc(SCC(=O)N2CCc3ccccc32)c2c(=O)n(C)c(=O)n(C)c2n1,nt,3%,1%,nt,nt,8%,1%,-3.4%
CC12CC[C@H]3[C@@H](CCC4(O)C[C@H](O)CCC34/C=N/NC(=O)c3ccc(O)cc3)C1(O)CCC2C1=CC(=O)OC1 (stereo partly drawn),nt,3%,1%,4%,-21%,nt,nt,nt
CCCC(=O)NCc1nc2ccccc2n1CC(=O)c1ccccc1,nt,8%,5%,1%,-5%,nt,nt,nt
COc1ccccc1NC(=O)CSc1sc2c(O)cc(=O)[nH]c2c1C#N,2%,28%,7%,-3%,-1%,nt,-5%[46.1 µM],nt
COc1cc2ccccc2cc1C(=O)N(CCN(C)C)c1nc2c(C)cccc2s1,?,-9%,-5%,-21%,-3%,nt,?,nt
CCOC(=O)c1cnn(-c2ccc(C(=O)Nc3ccc(OC(F)(F)F)cc3)cc2)c1N,11%[46.1 µM],nt,nt,nt,-12%,-21%,nt,0.3%
CCN1C(=NCCc2cccnc2)N[C@@H](c2ccccc2)[C@H](C(=O)OC)[C@H]1C,nt,17%&18%,1%&2%,2%,-2%,nt,nt,nt
CC(C)Oc1ccc(S(=O)(=O)N2CCOCC2)cc1NC(=O)c1cc([N+](=O)[O-])ccc1N1CCOCC1,0%,nt,6%,-18%,-16%,nt,1%,nt
CCC1CC(C)(C(=O)Nc2ccc(S(N)(=O)=O)cc2)OC1=O (stereo not drawn),6%,4%,2%,-2%,20%,3%,-11%,-0.6%
Cc1ccc(C)c(/C(O)=C2/C(=O)C(=O)N(CCN3CCOCC3)C2c2ccc(C)o2)c1 (stereo not drawn),0%,-7%,2%,-12%,42%[activator],-4%,15%,1.8%
CCCN(CCC)CCNC(=O)c1cc2c(=O)oc3ccc(C)cc3c2s1,7%[46.1 µM],nt,nt,nt,-14%,-7%,15%[46.1 µM],0.0%
CCCCN(C(=O)C1CCCC1)c1c(N)n(CCC)c(=O)[nH]c1=O,8%,nt,2%,2%,-11%,nt,20%,nt
COc1ccc(OC)c(NC(=O)c2nc3ccccc3s2)c1,-21%,nt,1%,-5%,45%[activator],nt,?,nt
CCOC(=O)C1CCCN(S(=O)(=O)c2c(C)c(C)cc(C)c2C)C1 (stereo not drawn),2%,-34%,-10%,15%,-10%,3%,-1%,-5.4%
COC(=O)C1CCN(C(=O)C23CCC(C)(C(=O)O2)C3(C)C)CC1 (stereo not drawn),18%,?,6%,2%,12%,4%,17%,3.8%
COc1cc(/C=N/Nc2ncc(C(F)(F)F)cc2Cl)cc(OC)c1OC,nt,-2%,5%,6%,-15%,16%,nt,-12%
COc1ccccc1NC(=O)Cc1csc(N)n1,19%,-2%,-3%,3%,-22%,2%,3%,3.1%
CCOc1ccc(N(CC(=O)N/N=C/c2cccnc2)S(C)(=O)=O)cc1,-4%[46.1 µM],nt,0%,2%,4%,nt,5%[46.1 µM],nt
COc1ccccc1NS(=O)(=O)c1cccc(C(=O)OCC(=O)NC2CC2)c1,?,nt,?,-1%,-2%,nt,11%[46.1 µM],nt
COC(=O)c1ccc2oc(=O)c(S(=O)(=O)c3ccc(C)cc3)cc2c1,-17%[46.1 µM],nt,nt,nt,0%,18%,-1%[46.1 µM],1.8%
CN(C(=O)COC(=O)c1cccc(S(=O)(=O)N2CCOCC2)c1)C1CCS(=O)(=O)C1 (stereo not drawn),1%,nt,-1%,-11%,-3%,nt,-3%,nt
COc1ccc(C(C[N+](=O)[O-])c2c(C)[nH]c3ccccc23)cc1OC (stereo not drawn),-23%,-7%,-15%,-23%,?,4%,-1%,-13%
CC(=O)Nc1ccc(Oc2cc(C#N)c(C#N)cc2N2CCCCCC2)cc1,?,?,-18%,13%,18µM*,?,?,-10%
Cc1sc2nc(SCCN(C)C)n(-c3ccccc3)c(=O)c2c1-c1ccc(F)cc1,?,17%,1%,9%,-4%,nt,?,nt
COc1cccc(C(=O)Nc2ccc3c(c2)OCO3)c1OC,?,-17%,-4%,-11%,25%,nt,?,nt
CCN(c1ccc(NC(=O)COC(=O)/C=C/c2cccs2)cc1)C(C)C,21%,nt,0%,?,-13%,nt,-27%[46.1 µM],nt
COc1ccc(-c2cc(C(=O)OCC(=O)c3cccc(OC)c3)c3cccc(Cl)c3n2)cc1,6%[46.1 µM],nt,nt,nt,-11%,7%,-12%[46.1 µM],1.1%
CN(C)Cc1cn(CCC(=O)O)c2ccccc12,4%,6%,nt,10%,-9%,nt,-19%,nt
Cc1nn(C(C)C(=O)N2CCOCC2)c(=O)c2nn(-c3ccccc3)c(C)c12 (stereo not drawn),nt,-3%,1%,-4%,-19%,nt,nt,nt
CCCCCc1c(C)c(C#N)c2nc3ccccc3n2c1-n1ccnc1C,0%,13%,4%,-2%,-8%,3%,-9%,-7.9%
Nc1nc(SCc2c(F)cccc2Cl)[nH]c(=O)c1-c1ccccc1,2%,3%,-1%,8%,2%,-3%,?,-4.1%
COc1ccc(Cl)cc1C(=O)Nc1ccc(N(C)C(C)=O)cc1,5%,-58%,-22%,-6%,14%,13%,23%,2.1%
CN(C)C(=S)Nc1ccc2ccccc2c1,14%,7%,?,-30%,23%,0%,?,-4.8%
Cc1ccnc(NC(c2cc(C)ccc2O)c2ccc3cccnc3c2O)c1 (stereo not drawn),?,nt,nt,nt,0%,3%,?,3.5%
O=S(=O)(NC1CCCC1)c1ccc(S(=O)(=O)N2CCc3ccccc32)cc1,?,-30%,-11%,15%,?,-4%,?,-6.8%
Cc1ccc(S(=O)(=O)N(C)C)cc1-n1c(SCC(=O)Nc2ccc(F)c(F)c2F)nc2ccccc2c1=O,?,14%,-8%,-8%,-25%,2%,?,-2.7%
Cc1nc(NC(=O)c2cnccn2)ccc1Br,?,1%,1%,14%,18%,nt,-11%[46.1 µM],nt
Cn1c(=O)[nH]c(=O)c2c1nc1n2CC(O)CN1c1ccccc1 (stereo not drawn),-1%[46.1 µM],1%,11%,4%,1%,nt,5%[46.1 µM],nt
Cn1c(SCc2cccc(F)c2)nnc1-c1ccncc1,1%[46.1 µM],3%,1%,-13%,7%,nt,9%[46.1 µM],nt
O=C(NCCCN1CCN(c2ccc(F)cc2)CC1)Nc1ccc(Cl)cc1,14%[46.1 µM],nt,nt,nt,0%,-16%,?,-16%
COc1ccc(Cl)cc1NC(=O)CN(C)C(=O)c1cc(-c2ccncc2)nc2ccccc12,1%[46.1 µM],nt,-1%,-17%,-28%,nt,?,nt
COc1ccc(/C=C2\SC(=O)N(CC(=O)Nc3ccccc3O)C2=O)cc1OC,nt,5%,0%,2%,0%,nt,nt,nt
CCOc1cc(Br)cc(C2NC(=O)c3c(sc4c3CCN(C)C4)N2)c1O (stereo not drawn),21%[46.1 µM],nt,nt,nt,10%,15%,17%[46.1 µM],-9.4%
COc1cccc(C2C(C(=O)Nc3nc4ccccc4s3)=C(C)NC3=C2C(=O)CC(C)(C)C3)c1OC (stereo not drawn),?,6%,-3%,5%,-4%,8%,?,-10.0%
CCOC(=O)C1CCN(C(=O)c2cccc(NC(=O)C(CC)CC)c2)CC1,3%,-13%,-1%,6%,nt,22%,30%,0.8%
Cc1ccc(NC(=O)CN2C(=O)NC3(CCCCCCC3)C2=O)cc1C,-7%,nt,-2%,15%,-8%,nt,4%,nt
CC1CCN(Cc2nc3c(c(=O)n(C)c(=O)n3C)n2CCCc2ccccc2)CC1,1%,0%,-1%,7%,?,-7%,-12%,-7.9%
O=C(Nc1cccc(NC(=O)c2cccs2)c1)c1cccnc1,0%[46.1 µM],nt,0%,4%,-9%,nt,?,nt
CCOC(=O)CC1=NN(c2ccccc2)C(=O)/C1=C\c1ccc(N(C)C)cc1,16%,-2%,19%,0%,-27%,5%,?,-3.2%
O=C(C1CC1)N1CCCC(c2ccc(Cl)cc2)=N1,?,nt,-4%,-15%,-20%,nt,-4%[46.1 µM],nt
Cc1ccc(Cl)cc1NC(=O)c1ccc(NC(=O)CCC(=O)O)cc1,16%,6%,-3%,1%,?,-2%,4%,1.7%
Cc1cccc(N(CC(=O)N2CCCC2)S(C)(=O)=O)c1,nt,14%,4%,2%,-4%,nt,nt,nt

# Compound activity deposited in PubChem BioAssay by National Center for Advancing Translational Sciences (NCATS).
